Screening data: PubChem BioAssay, ICCB-Longwood Screening Facility, Harvard Medical School
HCMV UL50-53 inh: inhibitors of HCMV UL50-UL53 nuclear egress complex interaction; HTRF UL50-UL53 interaction, normalized percent inhibition; inhibition, % (no concentration beside the values); 190,000 tested, 0.15% active;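 active = both replicates at 50% or more, plus weaker picks with an unusually low signal ratio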;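 also: stock transfer was 100 nL into about 20 µL; 0% = negative control wells and 100% = wells with untagged competitor protein; inactives centre near -12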
Sa growth 42C: blocks Staphylococcus aureus growth | S. aureus RN4220 growth, OD600, 20 h, 42 °C; hits give low values | relative growth, % (concentration not given with the values) | 170,000 tested, 0.53% active;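 active = growth at 42 °C up to 50% and 20 or more points under that at 30 °C, or under 10% at both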;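 also: 300 nL library stock went into each well; scaled to the means of positive and negative controls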
GIV Gai3 FP: GIV-Galpha-i interaction inhibition; percent of control (FP), % (concentration not given with the values); Galpha-i3/FITC-GIV peptide fluorescence polarization, 90 min; hits give low values; scaled: aluminum fluoride 0%, vehicle 100%; AID 1224905; P08753; 210,000 tested, 0.42% active;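 active = replicate mean at 85% of control or lower, very high polarization wells dropped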;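 also: wells of about 15 µL received 100 nL stock; the first replicate is given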
Target sequence (P08753 whole entry, looked up): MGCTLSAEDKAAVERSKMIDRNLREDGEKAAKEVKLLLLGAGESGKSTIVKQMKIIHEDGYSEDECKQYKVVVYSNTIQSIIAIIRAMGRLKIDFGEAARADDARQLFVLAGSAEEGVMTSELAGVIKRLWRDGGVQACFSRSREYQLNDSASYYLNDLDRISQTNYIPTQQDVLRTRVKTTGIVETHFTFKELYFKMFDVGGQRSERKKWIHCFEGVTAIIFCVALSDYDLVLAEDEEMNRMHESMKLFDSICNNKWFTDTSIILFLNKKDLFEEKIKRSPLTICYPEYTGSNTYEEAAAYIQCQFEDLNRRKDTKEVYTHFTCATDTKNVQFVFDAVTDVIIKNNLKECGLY
Sa growth 42C second temp: also measured in Sa growth 42C; calls as there; relative growth, %; measured here: growth at 30 °C;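 optical density after 20 h as mean of two plates; 100% = untreated growth and lower means inhibition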
Active calls of the source: *; . = not tested or not shown; & = joins results of further samples.

SMILES	HCMV UL50-53 inh	Sa growth 42C	Sa growth 42C second temp	GIV Gai3 FP
COc1ccc2c(CNCCc3ccco3)c(C(=O)O)n(Cc3ccccc3)c2c1	.	89	98	110
COc1cc(NS(=O)(=O)c2ccc(NC(=O)c3ccccc3C(=O)O)cc2)nc(OC)n1	-21	88	86	102
CCOC(=O)c1c(C)[nH]c(C(=O)N2CCC(CC(=O)NCc3ccc(OC)cc3)CC2)c1C	-2	.	.	110
Cc1ccccc1NC(=O)NCCc1ccccc1	5	84	89	99
Cc1cc(=O)oc2cc(OC(=O)C(C)N3C(=O)CCC3=O)ccc12 (stereo not drawn)	-12	90	77	.
COC(=O)CN1C(=O)c2cccnc2Oc2ccc(C)cc21	.	101	92	103
COc1ccc(-c2cc(C(=O)NCCCN3CCOCC3)no2)cc1	6	107	99	98
CC(C)(C)C(=O)n1nccc1-c1ccc(-c2cccs2)s1	-10	99	54	123
CCc1c(C)nc(SCc2nc(-c3ccc(C)cc3)oc2C)[nH]c1=O	2	.	.	111
NC(=O)c1cccn1Cc1ccc(Cl)cc1	.	111	86	105&105
Oc1ccc(Cl)cc1C1=NOC(O)(C(F)(F)F)C1 (stereo not drawn)	-25	25	11	98
COc1ccc(-n2c(-c3ccc(Cl)cc3)n[nH]c2=S)cc1	-33	114	83	105
CC(Nc1nc(N2CCCC2)nc2ccccc12)c1ccccc1 (stereo not drawn)	-22&39	71	34	108&105
Cc1ccc(-c2noc(C(C)NS(=O)(=O)c3ccc(C)cc3)n2)cc1 (stereo not drawn)	.	97	97	106
COc1ccc(NC(=O)c2c(NCc3cccc(F)c3)sc3c2CCCC3)c(OC)c1	.	86	96	100
O=S(=O)(c1ccccc1)N(Cc1ccc(Cl)cc1)c1nccs1	-32	86	93	.
CCOC(=O)/C=C(/Nc1ccccc1SC)c1ccccc1	0	105	102	95
Cc1ccc(C)c(N2CCN(S(=O)(=O)c3c(C)nc4sccn4c3=O)CC2)c1	-3	100	95	100
COc1cccc(NC(=O)CCc2c(C)nn(-c3cc(N4CCCC4)ncn3)c2C)c1	-14	.	.	100
Cc1cccc(NC(=O)COc2cccc3c(=O)n(C)ccc23)c1C	.	118	83	99&98
Cc1ccc(NC(=O)C2CC(=O)N(c3cccc(-c4noc(C)n4)c3)C2)c(Br)c1 (stereo not drawn)	-26	.	.	103
Cc1ccc(-n2nc(C(=O)N3CCN(c4cccc(C(F)(F)F)c4)CC3)c(=O)n(C)c2=O)cc1	.	103	100	99
O=c1oc2ccc(Cl)cc2cc1-c1nc(-c2cccs2)no1	.	104	81	103
O=C(NC1CCN(C(=O)c2cccnc2Oc2ccccc2)CC1)c1ccccc1	4	96	88	99
CCc1ccccc1NC(=O)Cn1c(=O)n(-c2ccc(C)cc2)c(=O)c2cc(OC)c(OC)cc21	-10	108	100	102
S=C(Nc1ccc(Oc2ccccc2)cc1)N(CCN1CCCCCC1)Cc1ccco1	-8	77	64	104
Cc1ccc(NC(=O)CSc2nc(-c3ccco3)cc(C(F)(F)F)n2)cc1	10	108	102	100
CC(=O)NCCc1ccc(C(=O)CSc2nnc3n2CCCCC3)cc1	-22	95	87	.
Cc1sc2nc(C(C)(C)C)oc(=O)c2c1C	-8	.	.	110
COCCN1C(=O)/C(=C/N2CCN(S(=O)(=O)c3ccc(Cl)cc3)CC2)C(=O)NC1=S	-10	103	100	.
Cc1ccc(Sc2ccc(N3CCC(C(=O)Nc4cc(C)cc(C)c4)CC3)nn2)cc1	-12	88	86	101
O=C(CN1C(=O)COc2ccc(Cl)cc21)N1CCN(c2ccc(-c3noc(C4CC4)n3)cc2)CC1	-8	.	.	103
COc1cccc2c1Oc1ncccc1N(C(=O)CCC(=O)NCCC(C)C)C2	.	87	87	105
OC1(C2(O)CCCCC2)CCCCC1	-20	94	92	.
O=C(Nc1ccccn1)C1COc2ccccc2O1 (stereo not drawn)	2	107	110	103
Clc1ccc(CSc2nnc(-c3ccncc3)s2)cc1	-6	104	104	107
O=C(c1cnn2ccccc12)N(Cc1ccco1)C1CCCC1	-11	108	83	104
Cc1cccc(S(=O)(=O)N2CCCC2)c1	-24	97	77	100
CC(C)(/C=N/O)/[N+]([O-])=C/c1ccccc1	-12	101	124	96
CCOC(=O)c1cc(NC(=O)c2ccc(OC)cc2)c(=O)n2c1oc1ccccc12	-32	78	85	100
Cc1ccc2c(c1)C=C(C(=O)NC1CCCCC1)C=CO2	5	.	.	98
CNC(=O)c1ccc(N2CCc3ccccc32)s1	-50	104	96	113
CC12CN(Cc3ccccc3)CC(C)(CN(Cc3ccccc3)C1)C2=NO	-2	105	82	.
Cc1[nH]c2ccccc2c1C(Nc1ccccc1C(F)(F)F)c1ccccn1 (stereo not drawn)	.	89	91	98
C=CCSc1c2c(c(C#N)c3nc4ccccc4n13)CCC2	-36	63	23	113

Some of these compounds in order of molar mass, rising:
SMILES	HCMV UL50-53 inh	Sa growth 42C	Sa growth 42C second temp	GIV Gai3 FP
OC1(C2(O)CCCCC2)CCCCC1	-20	94	92	.
CC(C)(/C=N/O)/[N+]([O-])=C/c1ccccc1	-12	101	124	96
Cc1cccc(S(=O)(=O)N2CCCC2)c1	-24	97	77	100
Cc1sc2nc(C(C)(C)C)oc(=O)c2c1C	-8	.	.	110
O=C(Nc1ccccn1)C1COc2ccccc2O1 (stereo not drawn)	2	107	110	103
CNC(=O)c1ccc(N2CCc3ccccc32)s1	-50	104	96	113
Cc1ccc2c(c1)C=C(C(=O)NC1CCCCC1)C=CO2	5	.	.	98
C=CCSc1c2c(c(C#N)c3nc4ccccc4n13)CCC2	-36	63	23	113
O=C(c1cnn2ccccc12)N(Cc1ccco1)C1CCCC1	-11	108	83	104
CC12CN(Cc3ccccc3)CC(C)(CN(Cc3ccccc3)C1)C2=NO	-2	105	82	.
CC(=O)NCCc1ccc(C(=O)CSc2nnc3n2CCCCC3)cc1	-22	95	87	.
Cc1[nH]c2ccccc2c1C(Nc1ccccc1C(F)(F)F)c1ccccn1 (stereo not drawn)	.	89	91	98
COc1cccc2c1Oc1ncccc1N(C(=O)CCC(=O)NCCC(C)C)C2	.	87	87	105
O=C(NC1CCN(C(=O)c2cccnc2Oc2ccccc2)CC1)c1ccccc1	4	96	88	99
CCOC(=O)c1cc(NC(=O)c2ccc(OC)cc2)c(=O)n2c1oc1ccccc12	-32	78	85	100
Cc1ccc(Sc2ccc(N3CCC(C(=O)Nc4cc(C)cc(C)c4)CC3)nn2)cc1	-12	88	86	101
COCCN1C(=O)/C(=C/N2CCN(S(=O)(=O)c3ccc(Cl)cc3)CC2)C(=O)NC1=S	-10	103	100	.
CCc1ccccc1NC(=O)Cn1c(=O)n(-c2ccc(C)cc2)c(=O)c2cc(OC)c(OC)cc21	-10	108	100	102
O=C(CN1C(=O)COc2ccc(Cl)cc21)N1CCN(c2ccc(-c3noc(C4CC4)n3)cc2)CC1	-8	.	.	103

Later entries.
SMILES	HCMV UL50-53 inh	Sa growth 42C	Sa growth 42C second temp	GIV Gai3 FP
COc1ccc2nc3sc(C(=O)N4CCN(c5ccc(F)cc5)CC4)cc3cc2c1	-14	115	86	102
CC1CCc2cc(F)ccc2N1Cc1nnc(-c2ccccc2)o1 (stereo not drawn)	-23	98	90	101
CC1(C)CCc2cc(-c3ccn(C(=O)c4ccc(Cl)cc4)n3)ccc2O1	-41	91	87	106
Cc1ccccc1CO/N=C\c1[nH]ncc1Br	1	105	97	109
Cc1ccc(NC(=O)C2Nc3cc(F)ccc3S(=O)(=O)N2)cc1Cl (stereo not drawn)	-35	.	.	98
CCOc1ccccc1NC(=O)CSC1=Nc2ccccc2C2=NC(CC(=O)NCc3ccc4c(c3)OCO4)C(=O)N12 (stereo not drawn)	7	108	89	105
COC(=O)COc1ccc(/C=C2\C(=O)NC(=O)N(c3ccc(OC)cc3)C2=O)cc1OC	-21	.	.	104
CCOC(=O)c1ccccc1NC(=O)CCc1c(C)nc2ncnn2c1C	-4	96	90	103
Nc1c(-c2nc3ccccc3[nH]2)nnn1Cc1ccccc1	-6	108	90	.
N#Cc1c(-c2ccc(Cl)cc2)csc1S(=O)C1CCCCC1 (stereo not drawn)	-34	100	86	106
COc1ccc2c(c1)c1nc(SCC(=O)c3ccccc3)n(CCO)c(=O)c1n2C	1&9	98	89	100&103
CCOC(=O)c1c(C)c(S(=O)(=O)N2CCCCC2)c(C)n1C	-29	.	.	107
CCN(CC)S(=O)(=O)c1ccc(C(=O)Nc2c3c(nn2-c2ccc([N+](=O)[O-])cc2)CSC3)cc1	-54	.	.	103
O=c1oc2ccc(NS(=O)(=O)c3cccc4ccccc34)cc2s1	.	80	60	103
CSc1nc2ccccc2n1C	16	97	98	.
Cc1ccc(-c2nnn3c2nc(NCc2ccc4c(c2)OCO4)c2ccccc23)cc1	-38	105	87	108
FC(F)(F)CCSc1nnc(-c2cccs2)n1-c1ccccc1	-8	76	92	.
Cc1cc(C(=O)Nc2cc(Br)ccc2O)on1	-32	.	.	99
COc1ccc(OC)c(CNC(=O)c2ccc(Sc3ccc(C)cc3)c(N)c2)c1	.	110	91	99
Cc1ccccc1OCCN(C#N)c1nc(N(C)C)nc(N(C)C)n1	-26	.	.	107
COc1ccc(OC)c(S(=O)(=O)N2CCCC2C(=O)N2CCc3ccccc3C2)c1 (stereo not drawn)	-6	93	71	105
CCc1nnc2c3ccccc3nc(N3CCN(c4ccc(C)cc4C)CC3)n12	.	97	83	102
Cc1c(C(=O)N(Cc2ccc(N(C)C)cc2)Cc2ccco2)oc2ccccc12	-16	80	74	103
O=C1Cc2ccccc2C(=O)N1c1cccc(C(F)(F)F)c1	-9	81	92	.
CCN(C(=O)CN1C(=O)N(c2ccc(C)c(Cl)c2)S(=O)(=O)c2ccccc21)c1ccccc1	.	136	98	104
COc1ccc(C(=O)c2c(O)nc3ccccn3c2=O)cc1	-3	90	89	.
CC(C)c1ccc(NC(=O)c2cnc3sc(N4CCCC4)nn3c2=O)cc1	.	110	91	109
CCOc1ccc(-c2nc3c(s2)CN(C(=O)Nc2ccccc2CC)CC3)cc1	-8	.	.	98
COC(=O)c1cnc(N2CCCN(C(=O)C3COc4ccccc4O3)CC2)nc1C(F)(F)F (stereo not drawn)	-29	91	88	103
COc1ccccc1OCc1ccoc1C(=O)O	-5	85	111	82*
CCOC(=O)c1ccc(NC(=O)CSc2nc(-c3ccc(F)cc3)cc(C(F)(F)F)c2C#N)cc1	-27	100	95	138
C=CCN1CC(O)=C(c2nc3ccccc3s2)C1=N	3	106	95	103
CC1(CC(=O)N/N=C/c2cccc(Br)c2)OCCO1	-29	102	116	99
CC(=O)Nc1nnc(SCc2cc(=O)n3oc(C)cc3n2)s1	-12	.	.	102
COCCNC(=O)c1nnc(Cc2ccc(C)cc2)o1	-20	93	89	97
Cc1ccc(Cl)cc1NC(=O)N1CCc2cc(S(=O)(=O)N3CCC(C)CC3)ccc21	-22	104	89	103
CCCCN(C(=O)c1ccc2c(c1)OCO2)c1ccccc1	-26	102	101	106
CC(c1ccco1)N(C(=O)c1cccs1)c1ccccn1 (stereo not drawn)	-3	95	95	.
CCC1CN(S(=O)(=O)c2cc(-c3cc(C)no3)ccc2C)c2cc(Cl)ccc2O1 (stereo not drawn)	.	88	86	100
COc1cccc(C(=O)Nc2cccc(-c3ccc4nncn4n3)c2)c1OC	-80	99	57	106
O=C(Cn1cc2c(n1)CCCCC2)Nc1ccccc1Br	-17	85	89	104
Cc1ncc(CO)c(/C=N/N=C/c2ccc(Cl)cc2)c1O	-17	101	98	107
O=C(O)c1ccc(-n2nnnc2Oc2ccccc2C(=O)N2CCOCC2)cc1	.	85	94	107
CNc1nc2ccccc2[nH]1	0	108	95	.
O=C1C(=Nc2cccc(C(F)(F)F)c2)c2ccccc2N1CN1CCc2ccccc2C1	-25	93	77	.
CCS(=O)(=O)c1nc(S(=O)(=O)c2ccc(Cl)cc2)c(NCCN2CCOCC2)s1	.	109	87	99
CCN(CC)C(=O)n1cnc(-c2ccccc2)c1-c1ccccc1	2	118	100	101
COc1cccc(NS(=O)(=O)c2cc(-c3cnc(C4CC4)o3)ccc2C)c1	.	102	77	99
COCCN1C(=O)c2oc3ccccc3c(=O)c2C12C(=O)N(C)c1ccccc12 (stereo not drawn)	-18	96	94	106
NC(=O)NC1CCCCC1	-6	97	92	104
CC1=NN(c2ccccc2)C(=O)C1CCC#N (stereo not drawn)	-15	97	76	106
COc1ccccc1N1CCN(C(=O)c2cc(-c3cccnc3)n(-c3ccccc3)n2)CC1	-15	.	.	100
Cc1ccc(C(=O)Nc2ccccc2C)cc1	-21	91	86	102
Cc1cc2oc(=O)cc(COC(=O)c3ccccn3)c2cc1C	-11	102	91	.
CCOc1ccccc1NC(=O)c1c2c(nc3ccccc13)C(=O)N(C1CCCCC1)C2	.	70	50	103
